# Source: PubChem BioAssay
# Vaccinia mCherry – qHTS for Stage-Specific Inhibitors of Vaccinia Orthopoxvirus: mCherry Reporter Primary qHTS. Vaccinia virus mCherry reporter infection, fluorescence; about a quarter of the inactives have no number. Potency, µM (highest dose often 36.5 µM), without a hit: top-dose activity change, negative = inhibition, most hits filed as inhibitors. hit rate 0.63% among 310,000. AID 720579, 2013; active = well fitted inhibition curve with a large enough effect; inconclusive = small, poorly fitted or top-dose-only effect; inactive = no such curve, though single readings can be large or run the other way; tested in A549 cells; note: nearly all actives have a fitted effect of over 35% in size; inactives centre near -10
# VACV Venus inh – qHTS for Stage-Specific Inhibitors of Vaccinia Orthopoxvirus: Venus Reporter Primary qHTS. Vaccinia virus Venus reporter expression, fluorescence. Potency, µM (highest dose often 36.5 µM), for inactives: top-dose activity change, negative = inhibition, actives largely listed as inhibitors. hit rate 0.46% among 330,000; active means well fitted inhibition curve with a large enough effect; inconclusive means small, poorly fitted or top-dose-only effect; inactive means no such curve, though single readings can be large or run the other way; tested in A549 cells; note: nearly all actives have a fitted effect of over 30% in size; inactives centre near -10
# Numbers without * were called inactive; i = inactive; ? = inconclusive; nt = no result given; & = joins results of further samples. % is set by controls: 0 for no effect and ±100 for the full control effect; potency is the fitted concentration of half-maximal effect.
# Value order – VACV Venus inh	Vaccinia mCherry
O=C(Nc1ccccc1C(F)(F)F)c1noc2c1CCCCC2
 : -2%	-3%
C=CC[C@H](CC(=O)N(CCO)Cc1ccccc1)C(=O)N[C@H](COC(=O)[C@@H](CC=C)Cc1ccc(F)cc1)Cc1c[nH]c2ccccc12
 : ?	i
CCc1cc(C(=O)NCc2ccc(F)cc2)no1
 : 11%	-4%
O=C(Nc1cc(C(=O)N2CCOCC2)ccc1N1CCCC1)c1cccs1
 : -11%	-1%
CCOC(=O)c1ccc(NC(=O)C(CC)Sc2nnc3c4ccccc4n(C)c3n2)cc1 (stereo not drawn)
 : -13%	-13%
CN(C(=O)Nc1ccc(C(C)(C)C)cc1)C1CCCCC1
 : -14%	i
Cc1coc2cc3oc(=O)c(CCC(=O)NCc4ccccc4Cl)c(C)c3cc12
 : -5%	-15%
CN(C)Cc1csc(NC(=O)Nc2cccc(Cl)c2)n1
 : -15%	-1%
c1ccc(-c2nnc(CN3CCN(c4ccccn4)CC3)o2)cc1
 : 8%	2%
CCc1c(C)sc(NC(=O)c2cc(C3CC3)on2)c1C#N
 : -19%	-7%
CCOc1c2ccc(C(=O)NCc3ccco3)cc2nn1CC
 : -14%	-6%
CN(CCCNC(=O)C1CCC(=O)N1Cc1ccc(F)cc1)c1ccccc1 (stereo not drawn)
 : -6%	?
COc1cc2c(cc1OC)CN(Cc1cc(=O)n3cc(C)ccc3n1)CC2
 : 2%	-14%
CC(C)c1ccc(OCC(=O)N2CCN(c3ccccn3)CC2)c(Br)c1
 : -16%	i
Cc1ccc(C)c(S(=O)(=O)N2CCN(CC(=O)Nc3ccc4c(c3)CCC4)CC2)c1
 : -17%	-3%
CCn1cc(C(=O)NCCC(=O)NC(C)C)c(=O)c2cc3c(cc21)OCO3
 : -7%	-5%
Fc1ccccc1NC(=S)N1CCN(c2ccccn2)CC1
 : -9%	i
Nc1ccc(NC(=O)Nc2ccc(N)cc2)cc1
 : -6%	-2%
O=C(COC(=O)CNC(=O)c1ccccc1)NC1CCCCC1
 : -6%	-8%
CCOC(=O)C1=C(CSc2nc3ccccc3s2)NC(=O)NC1c1ccc(OC)cc1 (stereo not drawn)
 : ?	?
CCC1CCCCN1C(=O)CSc1nnc(-c2ccc(OC)cc2)o1 (stereo not drawn)
 : -13%	-15%
CCn1c(C)c(C2=CCN(S(=O)(=O)c3ccc(C)cc3)CC2)c2ccccc21
 : 8%	-8%
CCO[C@@H]1OC(C(=O)N2CCOCC2)=C[C@H](C2CCCCC2)[C@H]1CCCO
 : -5%	-17%
CC(=O)c1ccc(Oc2ncnc3sccc23)c(CN2CCOCC2)c1
 : -4%	-4%
CCN(CC)Cc1c(C)[nH]c2ccc(NC(C)=O)cc2c1=O
 : -5%	i
Cc1ccccc1Nc1nc(CSc2nnnn2-c2ccccc2)cs1
 : -4%	nt
C[C@H](CO)N1C[C@H](C)[C@@H](CN(C)S(C)(=O)=O)Oc2ccc(NC(=O)C3CCCCC3)cc2C1=O
 : -13%	-14%
Fc1ccc(F)c(CN2CCN(c3ncccn3)CC2)c1
 : -5%	-14%
COc1ccc2[nH]c3c(c2c1)CCN1C(=O)N([C@@H](C)C(=O)NCc2ccccc2)C(=O)[C@]31C
 : -10%	-5%
CC(=O)c1ccc(N2CCN(CC3CCCCC3)CC2)cc1
 : -15%	i

# Continued; the last four above are carried over.
# Value order – VACV Venus inh	Vaccinia mCherry
C[C@H](CO)N1C[C@H](C)[C@@H](CN(C)S(C)(=O)=O)Oc2ccc(NC(=O)C3CCCCC3)cc2C1=O
 : -13%	-14%
Fc1ccc(F)c(CN2CCN(c3ncccn3)CC2)c1
 : -5%	-14%
COc1ccc2[nH]c3c(c2c1)CCN1C(=O)N([C@@H](C)C(=O)NCc2ccccc2)C(=O)[C@]31C
 : -10%	-5%
CC(=O)c1ccc(N2CCN(CC3CCCCC3)CC2)cc1
 : -15%	i
COc1ccc(S(N)(=O)=O)cc1C(=O)NCC(C)(C)N1CCCCC1
 : -3%	-7%
O=C(C1CC1)N(CCN(Cc1ccccc1)C(=O)C1CC1)Cc1ccccc1
 : -6%	-8%
CN(C)c1ccc(/C=C/c2ccnc3ccccc23)cc1C=O
 : -10%	-24%
Cc1cc(NCc2ccccc2)nc(N2CCOCC2)n1
 : -17%	nt
COc1ccc(C(=O)NCC(c2ccco2)N2CCOCC2)cc1OC (stereo not drawn)
 : -18%	-5%
Cc1nn(Cc2ccccc2)c(C)c1NC(=O)c1cccs1
 : -2%	i
Cc1nn(-c2ccccc2)c(=S)n1-c1ccccc1
 : -11%	nt
COC(=O)C1C(O)=C(C=Nc2cccc3ccccc23)C(=O)CC1(C)C (stereo not drawn)
 : -25%	-27%
Nc1nc(N)c(-c2cccc(C(F)(F)F)c2)c(Cc2cccc(C(F)(F)F)c2)n1
 : 4µM*	4.5µM*
COc1ccc(NC(=O)CN(C)CC(=O)Nc2sc3c(c2C(N)=O)CCC3)cc1
 : -23%	-9%
N=C(c1cccc([N+](=O)[O-])c1)N1CCCCC1
 : -5%	-17%
COc1ccc(/C=C2\C(=O)NC(=S)N2C(=O)c2ccc(C)cc2)cc1
 : 4%	-11%
Cc1cnc(C)c(N2CCC(C(=O)NC(C)c3cccs3)CC2)n1 (stereo not drawn)
 : ?	-19%
C=CC[C@H](CC(=O)N(CCO)Cc1ccccc1)C(=O)N[C@H](COC(=O)[C@@H](CC=C)Cc1ccc(F)cc1)Cc1ccccc1
 : ?	?
Cc1ccc(Cc2cnc(NC(=O)c3ccco3)s2)cc1
 : ?	-14%
COCCn1c(=NC(=O)CCS(=O)(=O)c2ccccc2)sc2c(OC)ccc(OC)c21
 : -11%	i
CS(=O)(=O)Nc1ccc(C(=O)NCCSCc2c(F)cccc2Cl)cc1
 : -15%	-20%
COCCNC(=O)CSCc1c(F)cccc1Cl
 : -11%	-11%
O=C(CCl)N=c1sccn1Cc1ccc(Cl)cc1Cl
 : -14%	i
CCC(=O)Nc1ccc(C(=O)CSc2nnc(-c3ccc(NS(C)(=O)=O)cc3)n2C)cc1OC
 : -8%	-10%
COc1cc(CNc2nc(C)c(-c3ccn(CC4CCCN(C)C4)n3)s2)ccc1F (stereo not drawn)
 : -6%	-13%
COc1cccc(CNc2cc(CSc3ccc(Cl)cc3)nc(C)n2)c1
 : ?	nt
COc1c(O)cc2c(-c3ccccc3)cc(=O)oc2c1OC
 : -6%	-2%
COc1ccccc1CNC(=O)CN(C)S(=O)(=O)c1ccc(Br)s1
 : -5%	-13%
COc1ccc2oc(=O)cc(C)c2c1
 : -7%	-6%
COc1ccccc1-n1c(SCC(=O)N2CCOCC2)nc(O)cc1=O
 : -14%	-15%
CCC1Oc2ccc(C)cc2N(CC(=O)NCC2COc3ccccc3O2)C1=O (stereo not drawn)
 : 0%	i
N#Cc1nc(N2CCOCC2)nc(N2CCOCC2)n1
 : -7%&-12%	-10%
O=c1oc2ccc(Cl)cc2cc1-c1ccccc1
 : -3%	-8%
COC(=O)[C@@H](c1ccccc1Cl)N1CCc2sccc2C1
 : -17%	-5%
C=CCN1C(=O)/C(=C/c2ccccc2)S/C1=N/c1nccs1
 : -20%	i
O=C(c1ccc(C(=O)N2CCCCCC2)cc1)N1CCCCCC1
 : -14%	nt
NNC(=O)CCc1c[nH]c2ccccc12
 : -17%	-27%
Cc1nc2ccc(C(=O)O)cc2[nH]1
 : -10%	-5%
O=C(Nc1nnc(-c2ccccc2)o1)C1CCCCC1
 : -11%	i
CC(C)NC(=O)c1ccc(OC2CSC2)cc1
 : -9%	-10%
CCCNC(=O)C1(C)CCCN(Cc2csc3ccccc23)C1 (stereo not drawn)
 : -6%	i
Cc1ccc(C(=O)NCCc2c[nH]c3ccccc23)s1
 : -24%	-16%
Clc1ccc(-c2nc3c4cnn(-c5ccccc5Br)c4ncn3n2)c(Cl)c1
 : -24%	-22%
CC(C)COc1ccc(C(=O)OCCN2CCCCC2)cc1
 : -8%	-8%
Cc1cc(Br)cc(C)c1NC(=S)NC(=O)CC(C)C
 : -11%	-14%
C=CCOc1ccc(-c2nc3c(c(=O)[nH]c(=O)n3CCCC)n2C)cc1OC
 : -13%	-12%
Cc1ccc(C(=O)N/C(=C/c2ccco2)C(=O)NC2CCS(=O)(=O)C2)cc1 (stereo not drawn)
 : -16%	-5%
CC(Oc1ccc(Cl)cc1Cl)C(=O)NN=C1CCN(C)CC1 (stereo not drawn)
 : -16%	i
CCCCCCC(=O)Nc1ccc(C(=O)N2CCCC2)cc1
 : -1%	0%
Cc1ccccc1NC(=O)CCC(=O)N/N=C/c1c[nH]c2ccccc12
 : -7%	?
COc1ccc(OC)c(NC(=O)c2cc(CN3CCCC3)on2)c1
 : -15%	-10%
O=C(COC(=O)/C=C/c1ccccc1[N+](=O)[O-])NC1CCS(=O)(=O)C1 (stereo not drawn)
 : -7%	-7%
COC(=O)c1ccc(OCC2c3cc(OC)c(OC)cc3CCN2C(=O)Cc2ccc(OC)cc2)cc1 (stereo not drawn)
 : 1%	-6%
Cc1ccc(Cl)cc1NC(=O)CCN1C(=O)C2C3CCC(C3)C2C1=O (stereo not drawn)
 : -13%	i
COc1ccc(OC)c(/C=N/NC(=O)C(=O)N2CCCC2)c1
 : -13%	-10%
COc1cccc(NC(=O)C(C)SCc2ccccc2)c1 (stereo not drawn)
 : -3%	i
CC(C)NC(=O)N(C)C[C@H]1Oc2c(NC(=O)Nc3ccc(C(F)(F)F)cc3)cccc2C(=O)N([C@H](C)CO)C[C@@H]1C
 : -30%	i
Cc1c(OCC(=O)N2CCC(C(=O)O)CC2)ccc2c3c(c(=O)oc12)CCCC3
 : -3%	12%
CC1(c2ccc([N+](=O)[O-])cc2)NC(=O)N(CC(=O)Nc2cccnc2Cl)C1=O (stereo not drawn)
 : -17%	-2%
Cc1cc(OC(C)C(=O)NNC(=O)Nc2ccc(F)cc2F)cc(C)c1Cl (stereo not drawn)
 : -16%	-9%
Cc1ccc(-c2nn(CCC(=O)Nc3cccnc3)c(=O)c3ccccc23)cc1
 : -14%	-2%
N#Cc1cncc(C#Cc2ccccc2)c1
 : -5%	i
CCOC(=O)C/C(C)=N/NC(=O)Nc1ccccc1
 : -11%	-9%
CCSc1ncnc2sc(C)c(C)c12
 : -2%	-2%

# Some of the entries so far, field by field:
COc1cccc(NC(=O)C(C)SCc2ccccc2)c1 (stereo not drawn)
  VACV Venus inh = -3%
  Vaccinia mCherry = i

Clc1ccc(-c2nc3c4cnn(-c5ccccc5Br)c4ncn3n2)c(Cl)c1
  VACV Venus inh = -24%
  Vaccinia mCherry = -22%

COc1ccc(OC)c(NC(=O)c2cc(CN3CCCC3)on2)c1
  VACV Venus inh = -15%
  Vaccinia mCherry = -10%

CC(C)NC(=O)N(C)C[C@H]1Oc2c(NC(=O)Nc3ccc(C(F)(F)F)cc3)cccc2C(=O)N([C@H](C)CO)C[C@@H]1C
  VACV Venus inh = -30%
  Vaccinia mCherry = i

# Further compounds.
# Value order – VACV Venus inh	Vaccinia mCherry
CC(C)C12CN3CCN(CC(C3)/C1=N\NC(=O)Nc1ccccc1)C2
 : -5%	-4%
CCNS(=O)(=O)c1ccc(CCC(=O)Nc2ccccc2C(=O)OC)cc1
 : -1%	-12%
Cc1ccc(/C=C2\SC(=O)N(CCNC(=O)C3CSC4(C)CCC(=O)N34)C2=O)cc1 (stereo not drawn)
 : -21%	-6%
O=C(c1nc2ccccn2c1CNCCOc1cccnc1)N1CCOCC1
 : -13%	i
CCOc1ccccc1-n1c(SCC(=O)N2CCCc3ccccc32)nnc1-c1cccnc1
 : -9%	-12%
CCOC(=O)Nc1ccc2c(c1)nc(CN1CCN(C(C)=O)CC1)n2C
 : -5%	i
Cc1ccc2[nH]c(C)c(CC(=O)NCc3ccccc3)c2c1
 : -16%	?
O=C(NCc1cccnc1)c1ccc(NS(=O)(=O)c2ccccc2)cc1
 : -9%	i
O=C(Nc1ccnc(-c2ccncc2)n1)C1CC1
 : -9%	-10%
CC(C)CN1CCN(Cc2ccc3ncccc3c2)CC1CCO (stereo not drawn)
 : -2%	-5%
C=CCc1cc(Cl)ccc1OCCCNCCO
 : -18%	-11%
O=C(NC1(C(F)(F)F)NC(=O)N(c2ccc(F)cc2)C1=O)c1cccs1 (stereo not drawn)
 : -9%	-20%
CCN(C(=O)CSc1nc2ccccc2c(=O)n1C(C)COC)C1CCS(=O)(=O)C1 (stereo not drawn)
 : -13%	i
Cc1cc(Cl)ccc1NC(=O)NC1CCN(S(=O)(=O)c2ccc(F)cc2)CC1
 : -25%	?
Cc1ccn2c(=O)c(NC(=O)c3ccc4c(c3)OCO4)c(C)nc2c1
 : -9%	20%
COc1ccccc1NC(=O)c1cc2c(C)nn(-c3ccccc3)c2s1
 : -22%	-19%
COCCNC(=O)c1onc(CSc2cccc(OC)c2)c1C(=O)O
 : 0%	i
O=C(N/N=C/c1ccncc1)/C(=C/c1ccccc1)NC(=O)c1ccccc1
 : -3%	-15%
CCCn1c2c(c(O)c(C(=O)Nc3ccccc3)c1=O)CCCC2
 : -2%	-16%
Cc1cccc(/N=C/c2c(O)n(Cc3ccc4c(c3)OCO4)c(=O)c3ccccc23)n1
 : -7%	-11%

# An unsorted share of the library, and some 0.87% of all compounds hit somewhere here.
